# hNpr1 antagonist – Natriuretic polypeptide receptor (hNpr1) antagonism - Primary qHTS; HEK293 hNpr1 GloSensor cGMP, ANP-stimulated luminescence; Potency, µM (titrated, usually from 46.3 µM), for the others: at the top dose activity change, negative = inhibition, most hits filed as inhibitors; 1.6% of 76,000 active; AID 1347048, 2019; active = well fitted inhibition curve with a large enough effect; inconclusive = small, poorly fitted or top-dose-only effect; inactive = no such curve, though single readings can be large or run the other way;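 further: nearly all actives have a fitted effect of over 60% in size; nearly all hits also lower the signal before the agonist is added; a reference antagonist and vehicle were the controls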
# Target sequence (P16066 whole entry, looked up): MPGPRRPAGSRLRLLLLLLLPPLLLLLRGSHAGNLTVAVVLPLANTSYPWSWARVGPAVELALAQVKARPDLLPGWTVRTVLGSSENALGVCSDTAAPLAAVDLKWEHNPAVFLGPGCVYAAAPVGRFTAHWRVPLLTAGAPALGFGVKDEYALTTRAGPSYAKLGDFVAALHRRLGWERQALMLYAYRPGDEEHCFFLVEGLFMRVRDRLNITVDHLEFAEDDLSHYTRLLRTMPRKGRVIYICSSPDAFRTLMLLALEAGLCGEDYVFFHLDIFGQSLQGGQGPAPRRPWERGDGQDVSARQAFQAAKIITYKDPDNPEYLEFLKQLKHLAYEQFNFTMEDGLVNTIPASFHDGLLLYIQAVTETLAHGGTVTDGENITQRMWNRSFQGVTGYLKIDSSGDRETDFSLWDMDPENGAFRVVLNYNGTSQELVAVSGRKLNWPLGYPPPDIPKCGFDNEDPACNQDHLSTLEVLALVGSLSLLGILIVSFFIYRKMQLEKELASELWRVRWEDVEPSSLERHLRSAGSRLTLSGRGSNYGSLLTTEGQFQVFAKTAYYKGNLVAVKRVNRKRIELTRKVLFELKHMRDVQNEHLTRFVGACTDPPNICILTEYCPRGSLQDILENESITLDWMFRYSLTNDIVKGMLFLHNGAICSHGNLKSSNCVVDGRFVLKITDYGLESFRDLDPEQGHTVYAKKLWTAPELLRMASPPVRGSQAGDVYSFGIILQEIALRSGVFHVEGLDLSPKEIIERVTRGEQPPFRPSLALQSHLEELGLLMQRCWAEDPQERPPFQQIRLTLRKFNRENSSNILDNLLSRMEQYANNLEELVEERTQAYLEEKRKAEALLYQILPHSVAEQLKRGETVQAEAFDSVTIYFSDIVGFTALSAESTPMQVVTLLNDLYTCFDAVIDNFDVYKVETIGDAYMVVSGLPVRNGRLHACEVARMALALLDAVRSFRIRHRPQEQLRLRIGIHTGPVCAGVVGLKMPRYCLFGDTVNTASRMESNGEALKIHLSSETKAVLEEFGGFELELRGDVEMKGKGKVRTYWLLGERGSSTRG
#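 HEK293 cells stably expressing human Npr1 and cGMP GloSensor pGS-40F, loaded 2 h with 2% GloSensor reagent, given compound 30 min at room temperature. Luminescence read before and 20 min after 0.1 nM hNppA.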
# Numbers without * were called inactive; ? = inconclusive; [ ] = remark or other dose. On the % scale 0 is the no-effect control and ±100 the full control effect; potency means the concentration at half of the fitted maximal effect. Only part of the results is shown (hit frequency here may not be typical).
hNpr1 antagonist	compound
-3.8%	Cc1cccc(CNC(=O)C2CC(c3ccc(F)c(C)c3)CN(C(=O)c3ccccc3)C2)c1 (configuration not stated)
12.2%[70.6 µM]	COC[C@H]1CCCN1C(=O)CC[C@H]1CNC(=O)[C@@H]2[C@@H](CCN2CC2CC2)N1C
6.6%	COCCOc1ccc2c(n1)CCN(C(=O)c1ccc(OC)nc1OC)C2
-2.1%	CC(C)Cn1nc2n(c1=O)CCN(S(=O)(=O)c1cccs1)CC2
-13.3%	O=C(NC1CCCCCC1)c1cc2n(n1)CC(c1ccc3c(c1)OCO3)OC2 (configuration not stated)
9.6%	O=C(NCC1CC1)c1cccc(OC2CN(Cc3ccncc3F)C2)c1
0.1%	CCn1cc(CN2CC[C@H](CNC(=O)COC)[C@H](N(C)C)C2)c(C)n1
1.3%	O=C(NCc1ccc(F)cc1)C1CCN(C(=O)c2ncn3c2COC(c2ccc(Cl)cc2)C3)CC1 (configuration not stated)
?	CNC(=O)C1(C)CN(Cc2ccccc2)Cc2ccc(NCC(C)C)nc21 (configuration not stated)
1.5%[70.6 µM]	COc1ccc(-c2ncc3c(n2)OCCN(C)C3=O)cc1OC
1.3%	CCS(=O)(=O)Nc1ccc(C(=O)N2Cc3nnc(C)n3C(C)C2)cc1 (configuration not stated)
-1.3%	Cc1cccc(C(=O)N2CCn3nnc(CCC(=O)NC4CC4)c3C2)c1
2.8%	CCCn1cc(-c2ccncc2)cc1C(=O)NCc1ccccc1
5.6%	COc1cc(CN2CC[C@H](CNC(=O)C3CC3)[C@H](N(C)C)C2)ccc1F
4.8%	CCOCCCNC(=O)N1CCC(c2noc(-c3ccncc3)n2)C1 (configuration not stated)

# Overlap with the part before: four compounds, followed by the next part.
hNpr1 antagonist	compound
-1.3%	Cc1cccc(C(=O)N2CCn3nnc(CCC(=O)NC4CC4)c3C2)c1
2.8%	CCCn1cc(-c2ccncc2)cc1C(=O)NCc1ccccc1
5.6%	COc1cc(CN2CC[C@H](CNC(=O)C3CC3)[C@H](N(C)C)C2)ccc1F
4.8%	CCOCCCNC(=O)N1CCC(c2noc(-c3ccncc3)n2)C1 (configuration not stated)
-14.4%	CC(C)c1ccc(CN2CCCC3(CCN(S(C)(=O)=O)C3)C2=O)cc1 (configuration not stated)
?	Cc1c(-c2ccc(F)cc2)[nH]c2ccc(CNC(=O)CCN3CCCO3)cc12
-1.9%	CC1(c2ccccc2)N(Cc2cccnc2)C(=O)OC12CCN(C(=O)Cc1ccc3c(c1)OCO3)CC2 (configuration not stated)
7.7%	CCc1nnc2ccc(NCc3ccccc3)nn12
0.2%	COc1ccc(C(=O)N2CCC3(CC2)CC(OC)CCO3)cn1 (configuration not stated)
2.8%	OCC1(CN2CCCC2)CCN(C/C=C/c2ccccc2)CC1
0.4%	Cc1cnc(-c2cccnc2)n1CC1CCN(S(=O)(=O)Cc2ccccc2)CC1
3.5%[70.6 µM]	N#Cc1cccc(C(=O)N[C@H]2[C@H](O)[C@H](O)C[C@@H]2c2ccc(N3CCOCC3)nc2)c1
-2.5%[70.6 µM]	CNC(=O)CCn1ncc2cc(OCc3ccccc3-c3ccc(OC)cc3C)ccc21
-17.6%	CCOc1cccc(-c2noc(-c3nnn4c3COC(c3ccc(OC)cc3)C4)n2)c1 (configuration not stated)
0.7%[70.6 µM]	O=C(Nc1ccccc1)Nc1ccc([C@@H](O)[C@H]2COCC(=O)N2Cc2cccnc2)cc1
5.3%	COc1ccc(-c2nc(-c3ccccc3)nc3c2CN(C(=O)C2CCCC2)CC3)cc1
-0.4%[70.6 µM]	O=C(Cc1c[nH]c2ncc(-c3ccccc3)cc12)N1CC[S+](=O)([O-])CC1
1.5%	O=C(c1ccccn1)C1CCCN(c2ncncn2)C1 (configuration not stated)
-0.9%	COC(=O)[C@H](NC(=O)[C@@H]1C[C@@H](NC(=O)CSC)CCN1S(=O)(=O)c1ccc(OC)cc1)C(C)C
5.2%	CNC(=O)Nc1ccc(C)n(CC(=O)N2CCN(c3ccccc3OC)CC2)c1=O
8.8%	COc1ccc(N2Cc3c(ncnc3N3CCN(Cc4ccccc4)CC3)N(C)CC2=O)cc1
-2.1%	CNC(=O)[C@@H]1C[C@H](n2cc(CNC(=O)Nc3ccc(C)c(Cl)c3)nn2)CN1
4.8%	CC(C)c1nc(-c2ccc(C(=O)N[C@@H]3COCC[C@@H]3OCC3CC3)cc2)no1
-1.1%	Cc1nn(CCNC(=O)c2cn(CCN)nn2)c(C)c1Cl
2.7%	O=C(c1cc(F)ccc1F)N1CCC(N2CC3CC(C2)[C@H]2CCCC(=O)N2C3)CC1 (some centres not stated)
22.4µM*	COc1ccc(-c2cc(C[C@@H]3C[C@H](NCc4ccncc4)C3(C)C)no2)cc1
-1.8%	O=C(Nc1cccn2nc(C3CCC3)nc12)c1cccc(F)c1
0.4%	O=C1NCCOCCCN(S(=O)(=O)c2ccccc2)[C@H]2CCC[C@@H]12
-11.3%	Cc1ccc(Cn2cc(-c3ccncc3)cc2C(=O)N(C)Cc2ccccc2)cc1
0.3%	O=C(C[C@H]1NC(=O)c2ccccc2NC1=O)NCCn1c(=O)c(=O)[nH]c2ccccc21
-26.8%	COc1ccc(CC(=O)Nc2ccc([C@@H](O)[C@H]3COCC(=O)N3Cc3ccccc3OC)cc2)cc1
-12.8%	CCOc1ccccc1N1CCN(c2ncncc2-c2nc(-c3ccccc3)no2)CC1
4.4%	COC[C@@H]1[C@H](C(=O)Nc2cc(OC)ccc2OC)CCC(=O)N1C
1.5%	CC[C@@]1(O)CCN(c2nc(N)c3cc(OC)c(OC)cc3n2)C[C@H]1O
0.1%	CC(C)C1CN(C(=O)C(=O)c2ccco2)CCC(=O)N1CC1CC1 (configuration not stated)
3.9%	Cc1cccnc1NC(=O)Cn1nc2c(cc1=O)CCCCC2
-5.3%	CN1CCC(OC2CCN(C(=O)c3cccc(F)c3)CC2)CC1
2.6%	CN1CCC2(CCC1=O)CN(C(=O)Cn1cccnc1=O)CCN2C (configuration not stated)
4.5%	CCOc1ccc(C(=O)N2CCC([C@@H]3CNC[C@H]3CO)CC2)cc1OCC
8.5%[70.6 µM]	O=C(CC[C@@H]1CNC(=O)[C@@H]2C[C@H](NCc3ccc(CO)o3)CN12)NCc1ccccc1
6.4%	CCOCc1nc(C2CCCN2S(=O)(=O)c2cccnc2)no1 (configuration not stated)
-0.7%	CC(C)CCN1CCC(N2CCN(S(=O)(=O)c3ccc(F)cc3)CC2)C1=O (configuration not stated)
-1.8%	CCc1ccc(NC(=O)Cn2c(N3CCN(c4ccccc4)CC3)nc(C)cc2=O)cc1
-1.2%	CCCCNC(=O)Cc1csc2nc(C)c(-c3cc(C)n(-c4ccc(C)cc4)n3)c(=O)n12
2.4%	COc1ccc(-c2nnc3n2CCN([S+](=O)([O-])c2cccs2)C3)cc1
-0.7%[70.6 µM]	COCCn1c2c(c(=O)n1-c1ccccc1)CCN(Cc1cccc(C#N)c1)C2
-0.8%	O=C(N1CC[C@@H](c2ccc3ccccc3c2)[C@H](O)C1)C1(Cn2ccnc2)CC1
0.7%[70.6 µM]	O=C1C[C@@H]2CCN(C(=O)NCc3ccccc3)C[C@@H]2CCN1CCN1CCNC1=O
-0.3%	Cc1ccsc1C(=O)N1CCC2(CC1)NC(=O)N(c1ccccc1)N2
?	Cc1noc(-c2ccc(OC3CN(C(=O)NCc4ccccc4)C3)cc2)n1
-2.0%[70.6 µM]	O=C(NC[C@H]1COCc2nc3cc(F)ccc3n21)c1ccc2c(c1)OCO2
-15.5%	Fc1ccc(CNCc2cccnc2N2CCN(c3ccccn3)CC2)cc1F
?	Fc1ccc2nc(CO[C@H]3CN(Cc4ccc5ccccc5n4)C[C@H]3F)[nH]c2c1
0.7%	Cc1cccc(NC(=O)C2CC(=O)N(c3n[nH]c4ccccc34)C2)n1 (configuration not stated)
-2.8%	O=C(c1cccnc1OC1CCN(C(=O)C2CC2)C1)N1CCCCC1 (configuration not stated)
1.1%	COc1ccc(OCc2nc(C)c(CCO)c(=O)n2CC(=O)Nc2ccccc2C)cc1
0.5%[70.6 µM]	COCCN1CCC2(C1)CN(C)c1ccc(C(=O)NCC3CC3)cc12 (configuration not stated)
-0.7%	CN(CC1CCOC1)S(=O)(=O)c1cccs1 (configuration not stated)
4.8%	CCc1cccc(Nc2ncncc2-c2nc(-c3ccccc3)no2)c1
-25.9%	O=C(NCc1cccs1)c1cc2n(n1)CC(c1ccc(Cl)cc1)OC2 (configuration not stated)
-2.8%	Cc1ccc(CN2CCCC(c3nc(-c4cccnc4)no3)CCNC(=O)CC2)s1 (configuration not stated)
-1.8%	COc1cccc(C(=O)N2CCC(N(C)C3CCOCC3)CC2)c1
-0.5%[70.6 µM]	CN1Cc2ccc(N3CCOCC3)nc2C(C)(C(=O)NCCCn2ccnc2)C1 (configuration not stated)
-16.2%	CC(C)C(=O)Nc1ccc(C2(C(=O)N3CCN(c4ccccn4)CC3)CCCCC2)cc1

# Some of the entries above in a different format.
COCCN1CCC2(C1)CN(C)c1ccc(C(=O)NCC3CC3)cc12 (configuration not stated)
- hNpr1 antagonist: 0.5%[70.6 µM]
CN(CC1CCOC1)S(=O)(=O)c1cccs1 (configuration not stated)
- hNpr1 antagonist: -0.7%
Fc1ccc2nc(CO[C@H]3CN(Cc4ccc5ccccc5n4)C[C@H]3F)[nH]c2c1
- hNpr1 antagonist: ?

# Further entries.
hNpr1 antagonist	compound
-20.6%	CC1=NS(=O)(=O)N(Cc2ccccc2)C=C1C(=O)OCc1noc(-c2ccccc2C)n1
-0.5%	N#Cc1ccc(-c2nc(C(=O)NC3CCCCCC3)no2)cc1
1.5%	Cn1cc([C@@H](NC(=O)CCc2ccsc2)C2CC(O)C2)cn1 (some centres not stated)
4.0%	COc1ccc(-c2nc(-c3nnn4c3COC(c3ccccc3Cl)C4)no2)cc1F (configuration not stated)
-17.0%[70.6 µM]	COc1ncccc1-c1nccn2c(C3CN(Cc4c[nH]c5ccccc45)C3)ncc12
11.2µM*	CC(=O)Nc1ccc(S(=O)(=O)N[C@H]2CO[C@H]3[C@@H]2OC[C@H]3OC(=O)Nc2ccc(Oc3ccccc3)cc2)cc1
-0.8%	Cc1cnc(CCNS(=O)(=O)Cc2ccccc2F)n1C(C)C
1.2%	CCC(=O)N1CCCCC1c1nc(-c2ccncc2)n[nH]1 (configuration not stated)
3.3%	Cc1nc(CC2CCN(c3nccc(-c4cccnc4)n3)CC2)no1
2.8%[70.6 µM]	CC1(C)[C@H](Cc2cc(COc3ccccc3)on2)C[C@@H]1NC1CCC1
-1.1%	O=C(C1CCCC1)N1CCCCCC1CN1CCOCC1 (configuration not stated)
-11.3%[70.6 µM]	CNC(=O)C(C)(C)N1CCC[C@H]1C(=O)NCCc1ccccc1
1.4%	CCS(=O)(=O)Nc1ccc(C2(C(=O)NC3CCCC3)CCC2)cc1
-8.4%[70.6 µM]	COc1cccc(F)c1-c1ccc(COc2ccc3c(cnn3CCC(=O)O)c2)cc1
2.2%	COCCc1noc(-c2ccccc2OC2CN(C(=O)C(C)C)C2)n1
1.4%	O=c1[nH]nc2n1CCN(Cc1ccc(F)cc1Cl)CC2
2.2%	CCOCC(=O)N1C[C@@H](Oc2ccccc2)C[C@H]1C(=O)N1CCOCC1
-21.9%	O=C(NC1CC1)c1ccccc1OCC1CCCN(C(=O)C2CCCC2)C1 (configuration not stated)
-5.2%	Cc1nc(C)c(C(=O)N2[C@@H]3CC[C@H]2CC(NC(=O)c2ccc(F)cc2)C3)s1 (some centres not stated)
3.9%	CS(=O)(=O)N1C[C@H]2CCN(C(=O)c3cc[nH]c(=O)c3)C[C@H]21
-16.2%	O=C(NCC1CCN(c2cc(-c3ccccc3)[nH]n2)CC1)c1ccc[nH]1
0.5%	COC[C@@H]1CN(Cc2cccc(C(F)(F)F)c2)C[C@H]1C(=O)NC1CC1
1.5%	O=C(Cc1c(F)cccc1Cl)N1CCN(c2cc(-c3ccccc3)[nH]n2)CC1
7.0%	Cn1cccc1C(=O)N1CCCC(c2nnnn2C)C1 (configuration not stated)
3.6%	COc1cccc(CC(=O)N2CCC3(CC2)NC(=O)N(c2cccc(F)c2)N3)c1
1.2%	CCOc1ccc2c(C)c(C(=O)N3CC[C@](C)(O)[C@H](C)C3)oc2c1OCC
5.0%	COCCCN1CCC(CNc2ncncn2)C1 (configuration not stated)
7.3%	Cc1oncc1S(=O)(=O)N1C[C@H](CO)C[C@H](CN2CCCC2)C1
0.1%	COCCCN1CCC(CNc2nccc(-c3cnn(C)c3)n2)C1 (configuration not stated)
2.9%	Cc1ncoc1C(=O)N1CCC(c2noc(-c3cccnc3)n2)C1 (configuration not stated)
-7.4%[70.6 µM]	C=CCNC(=O)N[C@H]1CO[C@H]2[C@@H]1OC[C@H]2OC(=O)Nc1cccc(C(C)=O)c1
3.3%	COc1ccc2[nH]c3c(c2c1)CCNC31CCNCC1
-15.3%	Cc1cccc(C(=O)N2C[C@@H](COc3ccccc3)[C@H](C(N)=O)C2)c1
0.7%	O=C(NCC1CC1)C1(CCO)CC12CCOCC2 (configuration not stated)
9.2%	Cc1ccc(C(=O)N2CC[C@H](c3n[nH]c(C)n3)[C@H](NC(=O)C3CCOCC3)C2)cc1
6.5%	COc1cccc(C(=O)NCCC2CCN(C(=O)Nc3ccc(C)cc3)CC2)c1
-2.5%[70.6 µM]	O=C(NCc1ccccc1)N1CC[C@H](c2nc3ccc(F)cc3[nH]2)C1
1.0%	Cc1noc([C@@H]2CN(Cc3ccccc3OC(C)C)C[C@H]2CO)n1
